High-throughput results deposited in PubChem by National Center for Advancing Translational Sciences (NCATS).
Rango-impB inh: inhibitors of Rango-importin beta complex formation; Rango CFP/YFP FRET sensor + importin beta, 45 min; Potency, µM (series often up to 92.2 µM), for the others: at the top dose inhibition of complex formation; 0.031% of 340,000 active; AID 540263; active = rising FRET ratio curve, often small or poorly fitted; inconclusive = mostly compound fluorescence or quenching in the first reads; inactive = flat curves in all reads;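 note: potency is the fitted concentration of half-maximal effect; 0% = DMSO wells and 100% = buffer wells lacking importin beta; nearly all actives have a fitted effect of over 15% in size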
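FRET biosensor (snurportin 1 IBB flanked by EYFP and cerulean), 50 nM, with compound 5 min, then 0.125 microM importin beta in PBS, 1 mM DTT, 0.02% Tween-20, 0.1% BSA. CFP/YFP ratio read after 45 min at room temperature; pre-read flags interference.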
GLA inh pH 4.5: inhibitors of human alpha-galactosidase A at pH 4.5; P06280; purified enzyme, 4-MU-alpha-Gal fluorescence, pH 4.5; activity change, negative = inhibition, % at 105 µM; 230,000 tested, under 10 active; AID 1467; inconclusive = small, poorly fitted or top-dose-only inhibition, or a rising curve; inactive = flat fitted curve, though single readings scatter; no compound was filed as active;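 note: 0% = full activity with enzyme and -100% = basal without enzyme; dose as in the result columns while the protocol names 77 µM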
Target sequence (P06280 whole entry, looked up): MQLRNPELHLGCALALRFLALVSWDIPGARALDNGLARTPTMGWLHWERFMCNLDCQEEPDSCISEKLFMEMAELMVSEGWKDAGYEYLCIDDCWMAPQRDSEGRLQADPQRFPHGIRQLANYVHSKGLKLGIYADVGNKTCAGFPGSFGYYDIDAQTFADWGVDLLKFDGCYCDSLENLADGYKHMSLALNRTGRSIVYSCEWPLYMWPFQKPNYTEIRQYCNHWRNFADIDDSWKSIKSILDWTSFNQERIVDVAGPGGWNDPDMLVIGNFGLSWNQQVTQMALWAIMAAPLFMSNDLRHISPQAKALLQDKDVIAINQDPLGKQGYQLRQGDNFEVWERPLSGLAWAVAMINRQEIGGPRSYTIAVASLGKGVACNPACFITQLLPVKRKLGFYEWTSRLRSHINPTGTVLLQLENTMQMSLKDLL
miR-21 reporter: miR-21 reporter, rising signal; Potency, µM (top dose mostly 38.3 µM), inactives show at the highest dose reporter change, positive = more light; 340,000 tested, under 10 active; HeLa miR-21 FLuc reporter, luciferase, 48 h; active = well fitted rising curve with a large enough effect; inconclusive = small, poorly fitted or top-dose-only effect; inactive = no such curve, though single readings can be large or run the other way;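 note: % of control where 0% means no effect; miR-21 action dims this reporter so a rising signal means less miR-21 action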
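HeLa cells endogenously expressing miR-21, stably carrying CMV-driven firefly luciferase with a downstream miR-21 binding site, 2000 cells/well. Titrations up to approximately 40 uM, 48 hours; luciferase luminescence read.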
Rango release inh: prevents RanGTP from dissociating the Rango-importin beta complex | 0.071% of 340,000 active | O95149+P62826 | Potency, µM (doses to about 46.1 µM), without a hit: at the highest dose activity change, negative = inhibition | Biochemical FRET Rango-importin beta, RanGTP-induced dissociation; active means falling FRET ratio curve, often poorly fitted, with flat reads before Ran was added; inconclusive means other falling curves, or compound fluorescence or quenching; inactive means flat or rising ratio curve;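 note: potency is the fitted concentration of half-maximal effect; % of control where 0% means no effect; nearly all actives have a fitted effect of over 45% in size; -100% = wells without RanGTP and RCC1; the record marks most hits as doubtful in a second field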
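Compounds sat 5 min at room temperature with 0.1 uM Rango biosensor plus 0.25 uM importin beta, then FRET pre-read. RanGTP-RCC1 (0.6 uM Ran, 2mM GTP, 0.2 uM RCC1) added for 45 min, and the CFP/YFP post-read measured blocked complex dissociation.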
Starred values were filed as active, the others as inactive; ? = inconclusive; . = no result given. Some of the compounds tested; rates above refer to the full screens.

Rango-impB inh | GLA inh pH 4.5 | miR-21 reporter | Rango release inh | Molecule
0.6% | -3 | 0% | -4% | COc1cc(C2NC(=O)NC(C)=C2C(=O)OC(C)(C)C)ccc1OCC(=O)O (stereo not given)
-7.8% | 5 | 13% | -6% | CC1CCCN(c2ncnc3c2cnn3-c2ccccc2)C1 (stereo not given)
0.3% | 0 | 1% | 2% | COc1ccc(NC(=O)Nc2c(C)noc2-c2ccccc2)cc1
0.5% | . | 0% | -11% | COc1ccc(C2SCC(=O)N2c2ccccc2)cc1 (stereo not given)
-0.8% | . | . | 12% | CCC(=O)N1CCN(c2ccc(Cl)cc2NC(=S)NC(=O)c2ccco2)CC1
1.7% | 3 | -9% | 9% | Cc1cc(NS(=O)(=O)c2ccc(Nc3nc(-c4ccc(O)cc4)cs3)cc2)no1
-3.8% | . | -1% | -26% | COc1ccc(-n2ncc3c2CC(C)(C)CC3NC(=O)Cc2nonc2C)cc1 (stereo not given)
-0.1% | -4 | 2% | 14% | CC(C)c1onc(C(=O)N2CCC(C(N)=O)CC2)c1[N+](=O)[O-]
3.4% | . | . | 1% | CCC[C@@H](O)c1cc2cc(OC)c(OC)cc2c(=O)o1
-3.0% | 3 | -3% | 27% | CCOc1ccc(NC(=O)NCc2cccnc2)cc1
-1.7% | . | -5% | 9% | CC1CCN(c2ccc3nnc(CCC(=O)Nc4ccc(F)c(F)c4)n3n2)CC1
-2.7% | -1 | 2% | 1% | O=S1(=O)C=C(SCc2ccccc2)Nc2ccccc21
-0.6% | . | -50% | -9% | CC(Cc1ccco1)NC(=O)c1ccc(C(F)(F)F)cc1 (stereo not given)
-1.1% | . | . | 10% | COc1ccccc1Oc1ccc(NC(=O)Cc2ccccc2)cc1
-0.5% | -2 | -11% | 11% | COc1cccc(-c2nnc(SCC(=O)OC(C)C)n2Cc2ccco2)c1
6.0% | 2 | -6% | -24% | O=C(CCNS(=O)(=O)c1cccc2nsnc12)N1CC(=O)N(CCc2ccccc2)C(=O)C1
-1.0% | 7 | 1% | 24% | COC(=O)c1ccc(COC(=O)c2ccc(-n3cnnn3)cc2)o1
-3.3% | 4 | -2% | 1% | CC(C)CC(=O)Nc1ccc([N+](=O)[O-])cc1Cl
2.5% | . | . | 5% | COc1ccccc1/C=C/C(=O)OCC(=O)NC1CCCCCCC1
-3.2% | . | . | 33% | COc1ccccc1N1CCN(C(=O)c2cccc(S(=O)(=O)NCc3cccnc3)c2)CC1
1.5% | 0 | -5% | 1% | CCn1c(=O)cc(SCC(=O)NCCC2=CCCCC2)c2ccccc21
1.3% | -3 | -8% | -4% | COc1nccnc1NS(=O)(=O)c1ccc(NC(=S)NC(=O)c2cccc(F)c2)cc1
-0.4% | -3 | -4% | 5% | Nc1ccccc1Sc1cc(Cl)nnc1Cl
-6.1% | -20 | 1% | -5% | O=c1c2ccccc2nc2n1CCCN2
6.1% | . | . | 42% | O=C(NCCN1C(=O)S/C(=C\c2ccc(Cl)c([N+](=O)[O-])c2)C1=O)C1=COCCO1
-0.5% | . | . | 10% | COc1cc(OC)cc(C(=O)OCC(=O)c2ccc(S(=O)(=O)N3CCCCC3)cc2)c1
-2.6% | 5 | -11% | -4% | COc1ccc(C(c2nnnn2Cc2cccs2)N2CCN(c3ccccc3)CC2)cc1OC (stereo not given)
-1.8% | -3 | -3% | 8% | COc1ccc(C(C(=O)NC2CCCCC2)N(C(=O)c2ccccn2)c2cccnc2)cc1 (stereo not given)
-0.4% | 3 | -5% | -13% | Cc1ccnc(NC(=O)COC(=O)c2ccc(F)cc2F)n1
-3.1% | 6 | 11% | -5% | CC(C)C(C(=O)NC1=NCCS1)c1ccc(Cl)cc1 (stereo not given)
2.7% | -7 | 22% | -26% | COc1cc2c(cc1OC)CN(C(=O)c1cc(=O)c3ccccc3o1)CC2
0.5% | . | . | 4% | O=C(c1cc(S(=O)(=O)N2CCOCC2)c(Cl)cc1Cl)N1CCN(S(=O)(=O)c2cccc(F)c2)CC1
-0.4% | 2 | 1% | -3% | C=CCOc1c(Br)cc(CNn2nnnc2N)cc1OC
1.2% | 2 | -1% | -5% | O=C(Cn1nnc2ccccc2c1=O)Nc1ccc(S(=O)(=O)N2CCOCC2)cc1
2.2% | . | . | -8% | Cc1cccc(COc2coc(CN3CCN(C(=O)c4ccco4)CC3)cc2=O)c1
-1.2% | 12 | -8% | 1% | CCN1CCN(C(=O)CN(c2ccc(C)cc2)S(C)(=O)=O)CC1
9.0% | . | 2% | 11% | CC(C)[C@H](NC(=O)OCc1ccccc1)C(=O)OCc1ccccc1
? | -7 | -19% | ? | COc1ccc(C2c3ccc(O)cc3Oc3ncn4nc(-c5ccncc5)nc4c32)cc1OC (stereo not given)
3.5% | 0 | 9% | -8% | CCc1ccc(NC(=O)C(C)OC(=O)c2ccc(N3CCCC3)c([N+](=O)[O-])c2)cc1 (stereo not given)
-5.9% | . | . | -6% | O=C(COC(=O)c1ccc(-n2cnnn2)cc1)Nc1cc(Cl)ccc1F
1.1% | 2 | -2% | -6% | Cc1ccc(C)c(NC(=O)CN2C(=O)CNC2=O)c1
-0.4% | 0 | -13% | 10% | Cc1ccc(S(=O)(=O)CCC(=O)NCCN2C(=O)S/C(=C\c3ccccc3)C2=O)cc1
-1.4% | 4 | -3% | -4% | O=C(O)c1cccc(S(=O)(=O)N2CCSCC2)c1
-1.8% | 19 | -6% | -10% | CCN(CC)C(=O)CSc1nc(-c2ccco2)cc(C(F)(F)F)c1C#N
2.1% | -6 | 8% | -7% | Cc1nc2ccc(S(=O)(=O)NCC(=O)N3CCN(c4ccccc4)CC3)cc2s1
3.5% | . | . | 4% | NC(=O)C1CCN(C(=O)CN(c2ccc3c(c2)OCCO3)S(=O)(=O)c2ccccc2)CC1
? | 4 | -1% | 3% | CCn1c(SCc2nc3cc(OC)c(OC)cc3c(=O)[nH]2)nc2ccccc21
4.5% | 5 | 6% | 4% | CCC(=O)Nc1ccc(-n2nnnc2SCC(=O)NNC(=O)c2ccco2)cc1
-0.4% | -12 | 25% | 5% | O=C(CN1CCOCC1)Nc1nc(-c2ccc3c(c2)CCN3S(=O)(=O)c2ccccc2)cs1
-3.2% | -1 | -44% | 3% | Fc1ccc(-c2nc3ccncc3[nH]2)cc1
2.0% | -2 | -10% | 5% | COc1ccc2c(c1)C1(Nc3ccccc3C(=O)N1c1ccccc1)C(=O)N2 (stereo not given)
2.0% | . | 1% | 7% | O=C(CSc1nnc(CNC(=O)c2ccccc2)o1)NCc1ccco1
-2.9% | . | -13% | 1% | CS(=O)(=O)Cc1ccc(C(=O)N(CCc2ccccc2)Cc2ccccc2)cc1
-1.4% | 2 | -6% | -3% | Cc1cccc2cc(CNC3CCCC3)c(Cl)nc12
0.8% | . | . | -1% | O=C(NCCCc1ccccc1)c1cccc(NC(=O)C2CCCC2)c1
0.6% | 3 | -24% | 4% | COC(=O)c1sccc1NC(=O)/C=C/c1ccc(Cl)cc1Cl
-0.6% | -12 | -8% | -23% | CC(C)n1nnnc1SCC(=O)N1CCOCC1
? | 12 | -6% | -23% | C/C=C/C=C/C(=O)[C@@H]1[C@@H]([C@]2(C)OC(=O)C(C)=C2O)[C@H]2/C(=C(O)/C=C/C=C/C)C(=O)[C@]1(C)C(=O)C2(C)O (stereo not given in full)
-0.1% | 5 | -4% | 4% | Cn1cnnc1SCC(=O)Nc1cccc(S(=O)(=O)N2CCCCCC2)c1
2.8% | 3 | 4% | 0% | Cc1c(Cl)cccc1NC(=O)c1ncn[nH]1

Later entries
Rango-impB inh | GLA inh pH 4.5 | miR-21 reporter | Rango release inh | Molecule
-1.1% | . | . | -7% | Cc1cc(C(=O)OC(C)C(=O)NC2CCCCC2)c(C)o1 (stereo not given)
2.5% | -8 | -4% | -4% | COc1cc(/C=N/NC(=O)c2cccc(S(=O)(=O)N3CCOCC3)c2)cc(OC)c1O
1.2% | 0 | -3% | 8% | COc1ccccc1-n1c(SC)nc(O)cc1=O
? | 5 | -4% | -16% | CCCCCCn1c(-c2ccco2)nc2oc3cc(OC)ccc3c(=O)c2c1=O
-1.3% | . | -5% | -4% | Cn1cnc2c1c(=O)[nH]c(=O)n2Cc1ccccc1
5.3% | -2 | -9% | -13% | CC(C)(C)C1CCc2c(C(=O)NNC(=O)/C=C/C(=O)O)csc2C1 (stereo not given)
2.9% | -3 | 0% | 2% | COc1ccc(N2CCN(Cc3nc(Cc4cccc(F)c4)no3)C(C)C2)cc1 (stereo not given)
2.3% | . | 10% | -2% | CCOC(=O)N1CCN(C(=O)c2cc3c(=O)n4cccc(C)c4nc3s2)CC1
-2.1% | 1 | 0% | -9% | O=C(O)CCCC(=O)Nc1ccn(-c2ccccc2)n1
-1.0% | -9 | -2% | 12% | COC(=O)C/C(C)=N/Nc1ccc(S(=O)(=O)N2CCCC2)cc1[N+](=O)[O-]
-0.6% | 1 | 0% | -9% | CC1CCN(C(=O)C2CCC(CNc3c(N4CCCCC4)c(=O)c3=O)CC2)CC1 (stereo not given)
-1.3% | -8 | -1% | -4% | O=C(Cn1c(=O)n(-c2cccc(Cl)c2)c(=O)n1CC(=O)N1CCCCC1)N1CCCCC1
0.6% | . | 12% | 3% | CC(C)(C)c1ccc(-n2ncc3c2CCCC3NC(=O)C2=NNC(=O)CC2)cc1 (stereo not given)
-0.7% | 6 | -1% | -5% | Cc1ccc(S(=O)(=O)N(CC(O)CN2C(=O)NC(C)(C)C2=O)c2cccc(C)c2)cc1 (stereo not given)
5.2% | -27 | 0% | 11% | N/C(CC(=O)Nc1ccc(F)c(Cl)c1)=N\OC(=O)c1cccs1
-0.2% | 1 | -6% | 17% | CCOC(=O)c1c(C)nc2c(C)cccn12
2.8% | 3 | -1% | 2% | COc1ccc(NC(=O)COC(=O)/C=C/c2cnc3ccccc3n2)cc1
-3.1% | 1 | -5% | 2% | CC1CCC/C(=N\NC(=S)NCc2ccccc2)C1 (stereo not given)
5.4% | 3 | -6% | 1% | CCCOc1ccc(C(=O)NC(C)C(=O)O)cc1 (stereo not given)
1.7% | 2 | 0% | 0% | CCS(=O)(=O)Nc1cccc(C(=O)O)c1
-1.1% | . | . | 0% | COC(=O)[C@]1(C)N[C@H](CN(C)C(=O)Nc2ccc(C(F)(F)F)cc2)[C@@H]2C(=O)N(C)C(=O)[C@@H]21
-0.2% | 2 | -8% | 1% | Cc1cc(-c2ccccc2)nc(N2CCC(C(=O)NC(C)C)CC2)n1
-0.5% | 4 | -9% | 3% | CCS(=O)(=O)c1ccc(O)c(NC(=O)Nc2ccccc2OC)c1
? | -2 | 0% | ? | COc1ccc(O)c(C(=O)c2cc(C#N)c(=O)n(-c3ccc(Cl)cc3)c2)c1
